STK33 kinase inh = inhibitors of purified STK33 kinase, primary screen, biochemical, ADP-Glo luminescence, homogeneous, cell-free. AID 2661, 2010. 0.073% of 320,000 active. MBP phosphorylation. inhibition, % at 10 µM;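 active = inhibition at or above 25%, using the most active replicate where run in duplicate; inactive = inhibition below 25%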
Target sequence (Q9BYT3 whole entry, looked up): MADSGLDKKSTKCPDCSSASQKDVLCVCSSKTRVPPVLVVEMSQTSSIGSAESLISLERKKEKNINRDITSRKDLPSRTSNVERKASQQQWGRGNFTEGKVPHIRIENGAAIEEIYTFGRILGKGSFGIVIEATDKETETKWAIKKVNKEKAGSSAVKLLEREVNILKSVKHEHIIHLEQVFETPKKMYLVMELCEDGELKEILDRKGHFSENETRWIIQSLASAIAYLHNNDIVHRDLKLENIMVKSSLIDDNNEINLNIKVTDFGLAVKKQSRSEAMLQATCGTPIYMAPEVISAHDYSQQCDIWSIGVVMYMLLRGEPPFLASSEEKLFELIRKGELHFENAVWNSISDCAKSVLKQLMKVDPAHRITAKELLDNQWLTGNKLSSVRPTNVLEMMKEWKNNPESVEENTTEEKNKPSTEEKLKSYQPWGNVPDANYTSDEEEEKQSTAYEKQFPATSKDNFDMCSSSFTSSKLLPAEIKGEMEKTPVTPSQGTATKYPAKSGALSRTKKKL
OX1R antag = antagonists of human orexin 1 receptor (OX1R); OX1R-expressing cells, FRET antagonist read-out; 1.8% of 330,000 active; AID 485270, 2010; inhibition, % at 6.6 µM; Orexin/Hypocretin receptor type 1 (Homo sapiens), O43613; in the data active = inhibition mostly above about 38%, no sharp cut-off; inactive = mostly below about 40%;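 note: 0% = agonist challenge alone and 100% = reference antagonist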
Target sequence (O43613 whole entry, looked up): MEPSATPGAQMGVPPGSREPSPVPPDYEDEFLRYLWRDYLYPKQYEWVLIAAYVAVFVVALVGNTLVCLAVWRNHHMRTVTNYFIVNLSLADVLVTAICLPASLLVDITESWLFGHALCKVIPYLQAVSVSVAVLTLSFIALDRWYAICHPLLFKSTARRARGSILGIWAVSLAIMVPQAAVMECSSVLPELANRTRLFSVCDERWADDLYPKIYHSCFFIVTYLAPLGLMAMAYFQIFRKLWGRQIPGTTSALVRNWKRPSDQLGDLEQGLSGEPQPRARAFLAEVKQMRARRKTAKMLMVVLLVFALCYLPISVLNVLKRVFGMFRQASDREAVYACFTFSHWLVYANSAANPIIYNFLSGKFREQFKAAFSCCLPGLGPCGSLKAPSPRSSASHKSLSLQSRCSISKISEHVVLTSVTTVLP
Starred values were filed as active, the others as inactive; nt = not tested or not shown. A portion of the library, and most or all hits are left out here.

Start of the data: the first four entries (preview)
Values in the order: OX1R antag | STK33 kinase inh
- O=C(c1cccc(-c2ccco2)c1)N1CCCC(N2CCN(c3ccc(F)cc3)CC2)C1 (stereo not given)
    13 | 0.0
- Cc1nc2ccccn2c1/C(O)=C1\C(=O)C(=O)N(CCN2CCOCC2)C1c1cccnc1 (stereo not given)
    37 | -0.1
- Cc1nc2ccccc2nc1OCC(=O)N1CCN(c2ccccc2)CC1
    41 | 0.0
- CCC(C(=O)N1CCN(c2ncccn2)CC1)c1ccccc1 (stereo not given)
    3 | 0.2

This part in full (from the top)
Values in the order: OX1R antag | STK33 kinase inh
- O=C(c1cccc(-c2ccco2)c1)N1CCCC(N2CCN(c3ccc(F)cc3)CC2)C1 (stereo not given)
    13 | 0.0
- Cc1nc2ccccn2c1/C(O)=C1\C(=O)C(=O)N(CCN2CCOCC2)C1c1cccnc1 (stereo not given)
    37 | -0.1
- Cc1nc2ccccc2nc1OCC(=O)N1CCN(c2ccccc2)CC1
    41 | 0.0
- CCC(C(=O)N1CCN(c2ncccn2)CC1)c1ccccc1 (stereo not given)
    3 | 0.2
- O=C(CCCNS(=O)(=O)c1cccs1)N1CCN(c2ccc(F)cc2)CC1
    9 | -2.7
- CC(C)=CC/C=C1\CCC(C(=O)O)C(C(=O)O)C1 (stereo not given)
    13 | -1.9
- COC(=O)c1cc(-c2c(C)oc3cc(O)ccc3c2=O)c(C)o1
    12 | 0.0
- O=C(COc1ccccc1)Nc1ccc(S(=O)(=O)NCc2ccco2)cc1
    22 | -0.2
- COCc1cc(C)nc(N/N=C/c2ccc(-c3ccc(C(=O)O)c(Cl)c3)o2)c1C#N
    20 | 0.4
- Cc1ccc(Oc2ncccc2NC(=O)CC2(CC(=O)O)CCCC2)c2c1CCC2
    9 | -3.5
- COC(=O)C1=C(C)NC(C)=C(C(=O)OCCN(C)Cc2ccccc2)C1c1cccc([N+](=O)[O-])c1 (stereo not given)
    22 | 1.7
- Cc1ccc(Nc2nc(N)nc(CN3CCN(c4ccccc4F)CC3)n2)cc1
    8 | -0.4
- COc1cccc(-c2cc(C(F)(F)F)nc(-n3ccc([N+](=O)[O-])n3)n2)c1
    3 | -1.0
- CC(=O)CSc1nc2c(c(=O)[nH]c(=O)n2C)n1Cc1ccccc1Cl
    20 | -2.0
- Cc1c(C(=O)N2CCC2)oc2ccc(Br)cc12
    19 | -0.2

Next section:
Values in the order: OX1R antag | STK33 kinase inh
- CCCc1sc(N)nc1-c1ccc(Cl)cc1
    7 | -1.1
- CCOC(=O)N1CCN(C(=O)C2CCCN(S(=O)(=O)c3ccc(F)cc3)C2)CC1 (stereo not given)
    14 | -0.5
- CCCCCCCC(=O)NN=C1CCN(Cc2ccccc2)CC1
    11 | 0.6
- CCCn1c(=O)c2ccccc2n2c(SCc3nnc(-c4ccccc4Br)o3)nnc12
    2 | -3.3
- Cc1ccnn1C(C)C(=O)O (stereo not given)
    18 | 3.7
- COC(=O)Cn1nc(-c2ccccc2)c2cc(Cl)ccc21
    30 | -1.5
- O=C(CCn1c(=O)oc2cc(Cl)ccc21)Nc1ccc(N2CCOCC2)cc1
    5 | -0.1
- COc1cccc(S(=O)(=O)NCc2ccc(C(=O)Nc3ccc(Cl)cc3)cc2)c1
    10 | -0.2
- N#CCSc1nc2c(c(=O)n1Cc1ccccc1)C1(CCCC1)Cc1ccccc1-2
    17 | 1.2
- CC(=O)NCCCNc1ccc([N+](=O)[O-])cc1
    34 | 0.7
- Cc1[nH]c(C)c(S(=O)(=O)N2CCN(c3cccc(C(F)(F)F)c3)CC2)c1C(=O)N1CCCC1
    7 | -1.0
- CCc1cc(C(c2ccccc2OC)N2CCOCC2)c(NC(=O)c2ccccc2)s1 (stereo not given)
    56 | -0.3
- Clc1ccc2nc(C3CCN(Cc4nnnn4C4CCCCC4)CC3)[nH]c2c1
    17 | 0.4
- O=C(NCc1ccco1)/C(=C/c1cccc(C(F)(F)F)c1)c1nc2ccccc2[nH]1
    8 | 0.6
- CC(C)C(C(=O)Nc1ccc(S(N)(=O)=O)cc1)N1C(=O)c2ccccc2C1=O (stereo not given)
    9 | -2.5

Additional entries:
Values in the order: OX1R antag | STK33 kinase inh
- COc1cccc2c1C(=O)C=C(C)C2=O
    124* | -0.4
- CN(C(=O)CSc1nnc(-c2ccc(Cl)cc2)n1CC1CCCO1)C1CCS(=O)(=O)C1 (stereo not given)
    21 | -0.2
- Cc1cccc(NC(=O)Nc2ccccc2)n1
    0 | 1.6
- CN(C)c1ccc(NC(=O)C(=O)NCCOc2ccccc2)cc1
    20 | -0.1
- Cc1c([N+](=O)[O-])ccc(S(=O)(=O)N2CCC(C(N)=O)CC2)c1C
    6 | -1.6
- O=C(CSCc1c(Cl)cccc1Cl)N1CCOCC1
    10 | -0.5
- CC(C)(C)c1ccc(C(=O)N2CCC(=O)N(C(COCc3ccccc3)Cc3ccccc3)CC2)cc1 (stereo not given)
    24 | -0.4
- CCCN1CCN(C(=O)CCn2c(=O)c3cccn3c3cccnc32)CC1
    0 | 0.1
- O=C(CN1C(=O)S/C(=C\c2ccc(O)c([N+](=O)[O-])c2)C1=O)Nc1ccc(N2CCOCC2)cc1
    nt | -0.1
- Cc1cc(S(=O)(=O)NCC(C)C)ccc1OCC(=O)N1CCOCC1
    10 | 0.8
- Cc1csc(SCCn2c(N3CCCC3)nc3c2c(=O)[nH]c(=O)n3C)n1
    15 | -0.9
- COc1cc(CN2CCNC(=O)C2CC(=O)NCCCC2CCCC2)cc(OC)c1 (stereo not given)
    2 | nt
- COc1ccc(NC(=O)Nc2ccc(OC)c(OC)c2)c([N+](=O)[O-])c1
    11 | -1.7
- COc1cc2[nH]cc(C(=O)NCCc3ccccc3)c(=O)c2cc1OC
    13 | -0.2
- O=C(NC(Cc1c[nH]c2ccccc12)c1nnc2n1CCCCC2)c1ccccc1Cl (stereo not given)
    28 | 0.3

(continued)
Values in the order: OX1R antag | STK33 kinase inh
- CC(C)n1cc(CN2CCC(n3nccc3NC(=O)C3CCCC3)CC2)cn1
    10 | -1.7
- CCNc1ccc(S(=O)(=O)N(C)C)cc1NCC(=O)Nc1ccc(F)c(Cl)c1
    29 | 0.2
- CCOC(=O)c1c(N)sc2c1CCCC2=O
    4 | 1.7
- Cn1c(=O)c(-c2cc(Br)ccc2N)nc2ccccc21
    26 | 0.9
- Cc1cc(C(=O)CSc2nnnn2C)c(C)n1CCc1ccc(Cl)cc1
    21 | -1.0
- Cc1ccc(C2NS(=O)(=O)N=C2N)cc1 (stereo not given)
    14 | -1.1
- COc1ccc(C2=NN(C(=O)c3ccc(Cl)c([N+](=O)[O-])c3)C(c3ccccc3)C2)cc1 (stereo not given)
    6 | 0.4
- COc1ccc(CCNC(=S)N2CCN(S(=O)(=O)c3ccc(C)cc3)CC2)cc1
    16 | 1.0
- Cc1ccc(NC(=O)CCCN2C(=O)c3cccc4cccc(c34)C2=O)cc1
    23 | -2.8
- Cc1ccc(-c2nc(NC(=O)c3nn(C)cc3[N+](=O)[O-])sc2C)cc1
    13 | -2.2
- COc1ccc(Nc2cc(Nc3cccc(OC)c3)ncn2)cc1
    0 | -0.6
- O=C(c1ccc(Br)o1)N1CCN(Cc2ccccc2Cl)CC1
    -3 | -4.7
- Cc1cccc(OCCC(=O)Nc2ccc(F)c(F)c2)c1
    37 | -0.8
- CC12CCC(=O)N1C(C(=O)Nc1nc3c(F)cc(F)cc3s1)CS2 (stereo not given)
    1 | 1.1
- COc1ccc2c(C)nc(Nc3nc(-c4ccccc4)cc(=O)[nH]3)nc2c1
    24 | 2.4

Further compounds.
Values in the order: OX1R antag | STK33 kinase inh
- CCCCn1[nH]c(-c2ccccc2)cc1=O
    20 | -2.4
- COc1cc(C(=O)Nc2ccc(Cl)c(C(F)(F)F)c2)cc(OC)c1OC
    22 | 0.1
- CCOc1ccc(-c2cn(S(=O)(=O)c3cccc4nsnc34)nc2N)cc1
    50 | -0.8
- COc1ccccc1NC(=O)c1ccc(COc2ccccc2Br)o1
    -4 | 0.3
- c1ccc(-n2ncc3c(N4CCN(c5ccccn5)CC4)nc(N4CCCCCC4)nc32)cc1
    6 | 0.4
- CC(Sc1nnc(-c2ccc(OC(F)F)cc2)o1)C(=O)NCC1CCCO1 (stereo not given)
    -12 | -1.1
- CC(=O)c1cccc(NC(=O)N2C3CCC2CC(NC(=O)Nc2ccccc2)C3)c1 (stereo not given)
    21 | -0.3
- O=C(NNC(=O)C1CCN(Cc2ccc(F)cc2Cl)CC1)Nc1ccc([N+](=O)[O-])cc1
    6 | -1.1
- COC(=O)C1CCN(C(=O)c2ccc3oc(Cc4ccc(Cl)cc4)nc3c2)CC1
    12 | -1.2
- COc1ccc(OCC(=O)NCCS(=O)(=O)N2CCN(c3ccc(F)cc3)CC2)cc1
    -2 | -0.2
- COc1ccc(CCC(C)NCc2ccc(F)cc2)cc1 (stereo not given)
    14 | -2.1
- COC(=O)c1ccc(NC(=O)CN2CCN(c3ccccc3)CC2)cc1
    11 | -2.9
- COc1cc(/C=N/Nc2ncc(C(F)(F)F)cc2Cl)cc(OC)c1OC
    18 | -1.6
- CN(c1ncc(C(F)(F)F)cc1Cl)N1C(=O)c2cccc([N+](=O)[O-])c2C1=O
    5 | -2.2
- Cc1ccc(C)c(OCc2cc(C(=O)N3CCN(C(=O)c4ccco4)CC3)no2)c1
    8 | -1.2

Some of these compounds in order of the OX1R antag value, smallest number first.
| smiles | OX1R antag |
| --- | --- |
| COc1ccc(Nc2cc(Nc3cccc(OC)c3)ncn2)cc1 | 0 |
| CCCn1c(=O)c2ccccc2n2c(SCc3nnc(-c4ccccc4Br)o3)nnc12 | 2 |
| CC(=O)NCCCNc1ccc([N+](=O)[O-])cc1 | 34 |

Continuation.
Values in the order: OX1R antag | STK33 kinase inh
- COc1ccc(Cn2nnnc2C(c2ccc(N(C)C)cc2)N2CCC(C(N)=O)CC2)cc1 (stereo not given)
    14 | -0.6
- C=CCSc1ncc(C#N)c(N)n1
    10 | 1.8
- COC(=O)c1c(S(=O)(=O)N2CCOCC2)c(C)n(C)c1C
    -12 | -0.8
- Cc1oc(C(C)(C)C)cc1C(N)=O
    11 | -0.8
- COc1ccccc1-c1ccc(=O)n(CC(=O)NC(C)(C)C)n1
    7 | -2.0
- Cc1ccc(C)c(N2CCN(CCCNC(=O)Cn3cccc3C(=O)c3ccccc3C)CC2)c1
    0 | -0.6
- Cn1nccc1C(=O)NC1CCCc2c1cnn2-c1cc(F)cc(F)c1 (stereo not given)
    19 | 0.6
- Cc1ccc(S(=O)(=O)NCc2ccco2)cc1C
    1 | -0.7
- O=C1NCCN1Cc1ccc(Cl)cc1
    8 | -0.6
- O=C(O)C1CCN(C(=O)CSc2nc3ccccc3c(=O)n2Cc2ccccc2)CC1
    9 | -0.3
- COCCNC(=O)C(c1ccc(O)cc1)N(Cc1ccccc1)C(=O)CCC(=O)Nc1ccccn1 (stereo not given)
    15 | 0.1
- COc1ccc(NC(=S)NCc2ccccn2)cc1OC
    6 | -1.3
- COc1ccccc1Oc1ccc(S(=O)(=O)N2CCCCC2C)cc1 (stereo not given)
    10 | 0.8
- Cc1nn(Cc2ccc(Cl)cc2)c(Cl)c1/C=N/NC(=O)c1cccnc1
    8 | 0.4
- Cc1c(-c2ccccc2)sc(N)c1C(=O)N1CCOCC1
    12 | -1.0

Other compounds:
Values in the order: OX1R antag | STK33 kinase inh
- CCCCC(=O)Nc1nnn(CCC)n1
    12 | -1.3
- COc1cccc(-c2noc(CCCC(=O)Nc3ccc(C(N)=O)cc3)n2)c1
    17 | -1.5
- CC(C)(C)n1nnnc1CN1CCN2CCCC2C1 (stereo not given)
    12 | -0.7
- COc1ccc(-c2csc(NC(=O)C3CCN(C(=O)c4ccc(F)cc4)CC3)n2)cc1OC
    25 | 0.3
- COc1ccc(-c2cccc(C3CC=CC4C3C(=O)N(Cc3ccccc3)C4c3ccc(C(F)(F)F)cc3)c2)cc1 (stereo not given)
    32 | 1.0
- COc1cccc(-c2nnc(SCC(=O)N3CC(C)CC(C)C3)o2)c1 (stereo not given)
    8 | 0.7
- COCCCNC(=O)C1Cc2cc(S(=O)(=O)N3CCCC3)ccc2N1C(C)=O (stereo not given)
    6 | -1.1
- CCc1ccc(NC(=S)N(CCN2CCOCC2)Cc2ccccc2F)cc1
    12 | -0.3
- CCn1c(COc2ccccc2C)nnc1SCC(=O)NCc1ccccc1
    -1 | -0.7
- S=c1nc(SCc2ccccc2)[nH]c2ccccc12
    23 | -0.2
- COc1ccccc1Nc1nnc(SCc2cc(=O)n3cc(C)ccc3n2)s1
    19 | -0.5
- COC(=O)C1CCN(CC(=O)Nc2sc3c(c2C#N)CCC3)CC1
    4 | nt
- CC(=O)Nc1c(O)nc(SCc2ccc(Cl)cc2)[nH]c1=O
    8 | nt
- CCCc1ccc(OCC(O)CN2CCN(c3ccccn3)CC2)cc1 (stereo not given)
    6 | -0.1
- COc1ccc(N2CCN(C(=O)C3CC(O)CN3S(=O)(=O)c3ccc([N+](=O)[O-])cc3)CC2)cc1 (stereo not given)
    58 | -1.5

Continuation:
Values in the order: OX1R antag | STK33 kinase inh
- Cc1ccc(-n2c(Cc3cccn3C)nnc2SCC(=O)NC2CCCCC2)cc1
    18 | -1.4
- Cc1ccc(-n2nc3c(=O)n(CC(=O)c4ccc(F)cc4)nc(C)c3c2C)cc1
    28 | -0.4
- O=C(NC1CCCCCC1)c1cc(=O)[nH]c2ccc(S(=O)(=O)N3CCOCC3)cc12
    0 | 0.5
- CCn1c(C(C)NC(C)=O)nc2ccccc21 (stereo not given)
    14 | -1.0
- Cn1cccc1C(=O)N1CCc2ccccc2C1
    14 | -0.2
- CN(C)S(=O)(=O)c1ccc(-c2cn3ccccc3n2)cc1
    6 | 4.6
- CC(=O)N(C(C)=O)c1c(C#N)c(C)n(-c2ccccc2)c1C(=O)c1ccccc1
    60 | 1.2
- Cc1ccsc1/C=N/NC(=O)CNC(=O)c1ccc(S(=O)(=O)N2CCOCC2)cc1
    26 | 0.6
- Cc1c(Br)c(C(F)(F)F)nn1CC(=O)NCC1CCCO1 (stereo not given)
    0 | -0.8
- COc1ccccc1C(=O)NC(=O)COC(=O)Cc1n[nH]c(=O)c2ccccc12
    21 | nt
- O=C1Nc2c(c(=O)[nH]c(=O)n2-c2ccccc2)C(C(F)(F)F)(C(F)(F)F)N1
    22 | -0.5
